Screening results from PubChem.
Vif A3G – HIV-1 Vif–A3G interaction blockers – biochemical, TR-FRET, GST-Vif 1-94, biotin-A3G peptide, dose response retest, primary screen (AID 1117319); TR-FRET GST-Vif / biotin-A3G peptide binding; higher % means a stronger effect; test concentration not given here; strong numbers were not always called active; one-dose inhibition, %; IC50 in µM for titrated hits; actives 0.57% (n = 260,000);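 active = above the screen mean plus three standard deviations and confirmed in dose response; inconclusive = results disagree or hit not tested in dose response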;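 note: Vif residues 1-94 fused to GST binding biotinylated APOBEC3G peptide 110-148; 0% = full assay without inhibitor and 100% = GST in place of GST-Vif; retest series ran down from 100 µM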
RanGTP-Impb inh – inhibitors of RanGTP-importin-beta interaction, primary screen, biochemical, FRET, CFP-Ran, YFP-importin-beta, homogeneous. cell-free CFP-Ran/YFP-importin-beta FRET ratio. inhibition, % (concentration not given with the values). actives 1.1% (n = 300,000). AID 2216;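 active = most replicates above 15%; inconclusive = exactly half above 15%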;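 note: 0% = DMSO wells and 100% = Ran loaded with GDP instead of GTP; wells of about 40 µL received 100 nL stock; the first replicate is given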
Calb FLC – C. albicans growth modulation with fluconazole | C. albicans CaCi-2 (fluconazole-resistant clinical isolate) + fluconazole, Alamar Blue growth, 48 h | growth inhibition, % (concentration not given with the values) | actives 0.57% (n = 300,000) | AID 1979;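 active = most replicates above 75%; inconclusive = exactly half above 75%; inactive = most below 75%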;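 note: all wells also contain fluconazole at 8 µg/ml as a sub-toxic cotreatment; 0% = median of DMSO wells and 100% = median of geldanamycin control wells; wells of about 8 µL received 7.5 nL stock; the first replicate is given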
ALR inh – blocks human ALR sulfhydryl oxidase activity; P55789; purified ALR, DTT oxidation, H2O2 HRP-luminol luminescence; inhibition, % (no concentration beside the values); actives 3.8% (n = 290,000); AID 485317;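 active = mean and each replicate at 75% or more; inconclusive = only one of the two met; inactive = neither met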;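 note: stock transfer was 7.5 nL into about 7.5 µL; 0% = neutral wells and 100% = wells with inactivated enzyme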
HNF4A DNA FP – change in binding of human HNF4 alpha to DNA | HNF4a-FITC DNA binding, fluorescence polarization, 1 h | P41235 | activity change, % at 10 µM | actives 0.3% (n = 360,000); in the data active = activity change above about 30%, passing the limit was not always enough;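 note: controls were the assay level and a saturating level of protein; the project sought stronger binding though the title names inhibitors; some compounds called inactive have numbers as strong as hits; positive values seem to mean higher polarization but the record does not say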
Target sequence (P41235 whole entry, looked up): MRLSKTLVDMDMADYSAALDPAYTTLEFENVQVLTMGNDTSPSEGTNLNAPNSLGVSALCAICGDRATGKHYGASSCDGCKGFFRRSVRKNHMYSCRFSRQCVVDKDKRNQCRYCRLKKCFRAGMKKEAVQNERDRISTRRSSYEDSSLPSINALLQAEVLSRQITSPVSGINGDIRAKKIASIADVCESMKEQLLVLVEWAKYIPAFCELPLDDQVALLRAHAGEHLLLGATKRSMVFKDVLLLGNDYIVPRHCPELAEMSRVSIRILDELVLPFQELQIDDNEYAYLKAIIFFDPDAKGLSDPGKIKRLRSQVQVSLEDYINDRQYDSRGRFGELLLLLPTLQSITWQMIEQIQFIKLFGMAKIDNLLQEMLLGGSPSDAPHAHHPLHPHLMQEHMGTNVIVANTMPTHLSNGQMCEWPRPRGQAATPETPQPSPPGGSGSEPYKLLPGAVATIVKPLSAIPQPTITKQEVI
B2AR ag – activates human beta-2 adrenergic receptor causing internalization. P07550. AID 504454. actives 0.43% (n = 340,000). response, % (no concentration beside the values). Am2.2-beta2AR cells, FAP receptor internalization, flow cytometry; reference of the scale not given here;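 active = response above a set limit, near 3 SD of response in nonfluorescent compounds, cut at about 42% in these data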;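 note: stock transfer was 100 nL into about 11 µL; a reference agonist was the positive control; negative values mostly stem from fluorescent compounds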
Target sequence (P07550 whole entry, looked up): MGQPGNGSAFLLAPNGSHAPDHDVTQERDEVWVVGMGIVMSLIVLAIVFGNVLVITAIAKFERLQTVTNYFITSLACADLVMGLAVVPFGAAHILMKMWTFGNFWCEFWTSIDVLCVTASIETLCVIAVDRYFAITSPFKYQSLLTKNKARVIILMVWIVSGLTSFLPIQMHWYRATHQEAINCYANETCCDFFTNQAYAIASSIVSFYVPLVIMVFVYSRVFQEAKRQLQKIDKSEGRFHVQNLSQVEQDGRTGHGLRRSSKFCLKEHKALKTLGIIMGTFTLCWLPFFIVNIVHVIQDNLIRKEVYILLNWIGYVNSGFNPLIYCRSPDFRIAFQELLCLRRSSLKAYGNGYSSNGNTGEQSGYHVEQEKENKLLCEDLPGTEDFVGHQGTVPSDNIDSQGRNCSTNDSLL
LANA-H2A inh – blocks KSHV LANA binding to histone H2A/H2B | Q9QR71 | cell-free LANA-H2A/H2B peptide, fluorescence polarization | inhibition, % (test concentration not listed) | actives 0.6% (n = 320,000); in the data active = inhibition mostly above about 10%, no sharp cut-off; inactive = mostly below about 6.7%;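 note: stock transfer was 7.5 nL into about 10 µL; 0% = median of vehicle wells and 100% = median of positive control wells; one replicate is shown; the record names a cut of 25% in any replicate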
* hit, by the source's call; ? = inconclusive; . = no result given.

Results follow in this order: HNF4A DNA FP	Vif A3G	RanGTP-Impb inh	ALR inh	LANA-H2A inh	Calb FLC	B2AR ag
- Cc1ccc(C2=NN(S(C)(=O)=O)C(c3cccs3)C2)cc1 (configuration not stated)
 : -7.5	7.9%	0.3	-0.3	0.2	-1.1	-1.6
- O=C(NCCN1CCOCC1)c1ccc(S(=O)(=O)Nc2ccccc2)cc1
 : 3.6	.	.	-65.6	-3.3	.	1.9
- O=S(=O)(Nn1cnnc1)c1ccc2ccccc2c1
 : -0.3	14.4%	-5.5	51.7	-5.9	-1.4	-2.9
- CC(C)(Oc1ccc(Cl)cc1)C(=O)Nc1ccc2oc(-c3ccncc3)nc2c1
 : 1.4	-0.6%	-2.2	-5.3	-6.0	-0.4	-3.5
- O=C(O)C1Cc2ccccc2CN1C(=O)CCl (configuration not stated)
 : -0.5	22.1%	-2.7	-1.6	4.1	-16.2	-4.8
- COc1ccc(S(=O)(=O)N[C@H](C(=O)O)C(C)C)cc1
 : -2.7	-2.1%	0.2	-11.3	3.1	-1.8	-0.7
- CCc1ccc(-n2c(SCC(=O)c3ccc4c(c3)NC(=O)CO4)nc3ccccc3c2=O)cc1
 : -4.2	-1.3%	5.1	9.5	0.0	4.0	-2.7
- O=C(Nc1ccccc1C(=O)NCc1ccco1)c1ccccc1
 : 0.7	-4.5%	-11.1	-2.6	-4.8	?	-3.1
- Cc1ccc2nc3c(cc(C(=O)NCC4CCCO4)c(=N)n3CCCOC(C)C)c(=O)n2c1 (configuration not stated)
 : 2.9	0.8%	.	.	18.1*	.	-13.7
- CCOC(=O)C1CCCN(C(=O)COc2ccc(S(=O)(=O)N3CCOCC3)cc2)C1 (configuration not stated)
 : 1.4	.	.	-0.1	3.3	.	5.3
- Fc1ccccc1Nc1nc(NCc2ccco2)nc(N2CCOCC2)n1
 : 0.4	.	-0.9	0.1	-3.9	-29.9	2.3
- Cc1ccnc(NS(=O)(=O)c2ccc(NC(=O)c3oc4ccccc4c3C)cc2)n1
 : 2.3	3.0%	4.7	7.3	-1.7	-4.6	11.5
- Cc1ccc(C(=O)Nc2ccccc2N2CCCC2)cc1
 : -0.6	.	-1.4	98.5*	1.2	-0.1	-2.7
- CC(=O)NC1=NN(C(C)=O)C(C)(c2ccc(C)cc2)S1 (configuration not stated)
 : 2.8	-1.5%	-1.4	-39.2	-1.6	-1.8	-6.8
- CN(C(=O)c1ccc2c(c1)CCO2)C(C)(C)C
 : 2.0	-2.5%	3.3	2.3	-0.8	5.2	1.8
- CN(c1ccccc1)S(=O)(=O)c1cc(C(=O)N2CCN(c3ncccn3)CC2)ccc1Cl
 : -1.5	.	.	.	-13.6	.	0.6
- Brc1ccccc1OCCNCc1ccccc1
 : 1.5	?	0.8	-4.1	6.5	-5.9	-4.4
- COc1cc(OC)nc(NC(=O)NS(=O)(=O)c2ccccc2Cl)n1
 : 1.0	-3.2%	9.3	0.1	0.6	6.8	0.3
- COc1ccc(OC)c(NC(=O)CN2C(=O)NC3(CCOc4ccccc43)C2=O)c1 (configuration not stated)
 : 0.4	26.9%	-2.6	-4.1	-4.4	6.8	0.6
- CC(=O)c1sc(NC(=O)c2cccnc2Cl)nc1C
 : 3.0	11.9%	1.5	-9.0	5.1	-12.9	-1.4
- Cc1ccc(-c2cc(Cc3ccncc3)c(=O)[nH]n2)cc1
 : -0.4	4.2%	-2.6	-0.7	-2.5	1.3	-1.6
- CSc1nncn1/N=C/c1ccc([N+](=O)[O-])cc1
 : 0.5	0.4%	0.7	-30.9	0.8	-5.1	-3.2
- CC(=O)N/C(=C\c1ccc(C)cc1)C(=O)O
 : -2.9	-6.2%	0.0	-1.2	-1.3	-9.3	-4.6
- O=[N+]([O-])c1ccccc1/C=N\Nc1nccs1
 : -4.0	.	-1.0	-8.4	-0.3	-0.7	0.6
- O=C(Cc1ccccc1[N+](=O)[O-])NNC(=O)c1ccncc1
 : -0.8	.	.	.	14.7	.	7.0
- O=C(NCCc1ccccn1)c1c(-c2ccsc2)sc2ccccc12
 : -0.3	8.3%	.	.	.	.	10.8
- CCNC(=O)COC(=O)CCNC(=O)c1ccc(Cl)cc1
 : 4.9	-6.0%	1.6	.	-3.9	-4.3	-2.7
- COc1cccc(NC(=O)C2CCC(CNS(=O)(=O)c3cccc4cccnc34)CC2)c1 (configuration not stated)
 : -0.8	0.7%	-0.1	-2.4	0.9	-4.5	8.2
- Fc1ccc2nc(-c3ccccc3)nc(SCc3nnc(-c4ccccc4)o3)c2c1
 : 2.0	-1.9%	-4.6	.	2.1	-5.9	-5.8
- CCSc1nccc(-c2nn(-c3ccc(C)cc3)ccc2=O)n1
 : -1.9	2.8%	-1.8	-8.2	4.4	.	-13.6
- CC[C@@H](C)C(NC(=O)OC(C)(C)C)c1cn([C@@H](CCC(=O)OC(C)(C)C)C(=O)N2CCN(C(=O)OC(C)(C)C)CC2)nn1 (some centres not stated)
 : 5.3	1.8%	-3.0	-7.5	-4.3	34.8	-5.9
- CC(=O)c1cc(F)c(N2CCN(CCC#N)CC2)cc1C
 : 1.1	-4.9%	-0.8	-0.2	-7.5	1.5	6.3
- CCOP1(=O)C=C(C(C)(C)C)OC1c1ccc(F)cc1 (configuration not stated)
 : -2.3	-3.6%	-3.6	2.0	0.6	-6.8	3.2
- Cc1cccc(N2CCN(C(=O)Cn3cccc3C(=O)c3ccccc3)CC2)c1C
 : 2.5	0.2%	3.3	13.8	5.2	-5.3	-8.8
- O=C(Nc1ccc(N2CCOCC2)c(Cl)c1)c1ccc(F)cc1
 : 0.1	5.6%	4.8	1.8	1.3	0.2	10.0
- NC(=O)CSc1nnc(-c2cc(-c3cccs3)nc3ccccc23)o1
 : 3.1	23.5%	.	-5.7	2.5	.	-19.3
- Cc1ccc(S(=O)(=O)NNC2=NS(=O)(=O)c3ccccc32)c(C)c1
 : -1.9	-3.3%	-1.3	58.4	-0.2	-8.2	-3.8
- Cc1ccc(NC(=O)C(Cc2ccccc2)NC(=O)OCc2ccccc2)cc1C (configuration not stated)
 : 1.2	-2.9%	-2.9	-0.3	-1.8	-6.4	-5.1
- COC(=O)c1ccc(CNC(=O)COC(=O)c2ccc(N(C)C)cc2)cc1
 : -0.3	-16.4%	-5.9	-2.1	3.1	-0.2	19.5
- CCCN(CCC)C(=O)Cc1coc2ccc3ccccc3c12
 : -0.6	24.4%	0.0	-20.6	5.1	18.9	3.1
- COc1ccccc1CCC(=O)Nc1ccc2c(c1)CN(Cc1ccc(CO)o1)CC2
 : 0.0	-2.0%	-3.1	-7.0	1.5	-4.3	17.1
- Cc1nnc(NC(=O)CSc2nc(N)c(NC(=O)c3cccs3)c(=O)[nH]2)s1
 : 1.0	.	1.3	19.6	0.3	-8.7	-4.5
- O=C(O)c1ccc(NS(=O)(=O)c2cccc3cccnc23)cc1
 : 0.1	4.0%	3.0	26.1	-3.8	16.4	7.9
- COC(=O)c1cc2c(cc1[N+](=O)[O-])OCO2
 : 0.3	2.7%	1.6	-15.9	-0.6	-36.8	2.0
- Cc1onc(-c2c(Cl)cccc2Cl)c1C(=O)NCCc1ccc(S(N)(=O)=O)cc1
 : 0.1	14.8%	0.4	-16.4	0.6	-1.2	-7.6
- CNC(=S)Nc1ccc(-c2nc3ccc(C)cc3s2)cc1
 : -0.6	-18.5%	1.6	4.5	3.1	40.8	11.5
- CC(=O)Nc1ccc(S(=O)(=O)NCCC(=O)Nc2cccc(Cl)c2)cc1
 : 2.0	.	-4.6	-0.3	-4.2	5.8	-4.8
- C=CCn1c(C2CCCCC2)n[nH]c1=S
 : -3.0	-10.8%	1.6	.	0.3	-1.9	-2.1
- Cc1nc(N2CCN(S(=O)(=O)c3ccc(Br)cc3)CC2)c2c(C)c(C)sc2n1
 : 0.5	3.3%	0.2	-1.8	0.5	13.3	6.6
- Cc1ccc(-n2nc(C)c(C3(O)C(=O)N(C)c4ccccc43)c2N)cc1 (configuration not stated)
 : -2.1	.	-4.1	.	-9.0	-47.3	2.1

Going on with the list.
Results follow in this order: HNF4A DNA FP	Vif A3G	RanGTP-Impb inh	ALR inh	LANA-H2A inh	Calb FLC	B2AR ag
- CC(C)N(Cc1ccccc1)C(=O)CN1c2cccc3cccc(c23)S1(=O)=O
 : 2.2	-7.2%	.	-14.1	9.9	.	-4.2
- CC(C)(C)CC(=O)NCc1cccs1
 : 5.4	-1.7%	-0.2	-6.5	2.7	-2.7	7.5
- O=C(Nc1ccccc1C(=O)NC1CCCCC1)c1ccccc1
 : 1.3	-0.9%	?	-4.6	2.7	-5.8	-0.5
- CC1(C)C(N(O)C(=O)Nc2ccccc2)N(c2cccc(Cl)c2)C(=O)N1O (configuration not stated)
 : 2.2	-0.4%	0.9	52.7	1.4	8.3	8.1
- COc1ccccc1NC(=O)CSc1nc(N)cc(N)n1
 : 2.2	2.5%	?	-3.9	0.0	18.8	-3.1
- O=C(O)CCNc1cc2ccccc2cc1C(=O)O
 : -1.2	6.0%	3.6	42.2	-4.5	2.0	-6.2
- Nc1ccc(N(c2ccccc2)c2ccc(N)cc2)cc1
 : 10.6	4.0%	1.9	.	0.8	-14.2	6.0
- COCCNC(=O)C(c1ccc(C)o1)N(C(=O)Cn1nnc2ccccc21)c1ccccc1 (configuration not stated)
 : 1.8	.	3.0	1.4	2.5	?	0.2
- COc1ccc(S(=O)(=O)N(C)C[C@H]2Oc3c(NC(=O)NC4CCCCC4)cccc3C(=O)N([C@H](C)CO)C[C@@H]2C)cc1
 : -2.0	.	.	-0.5	-2.0	.	-9.7
- CCc1ccc(C(=O)NCc2ccc(Cl)cc2Cl)cc1
 : -1.8	.	-4.2	-8.4	3.8	3.9	-3.1
- COC(=O)c1ccc(C23CC4(C2)[C@H](CN(Cc2ccc(C(F)(F)F)cc2)[C@@H]4c2ccccc2)C3c2ccccc2)cc1 (some centres not stated)
 : 3.6	.	?	-9.8	-6.2	-9.5	2.4
- O=c1[nH]c(=O)n(-c2ccccc2)c2c1C(C(F)(F)F)(C(F)(F)F)N=C(C1CCCCC1)N2
 : 2.6	.	-1.3	-2.0	-5.1	3.7	3.2
- Cc1cccc(NC(=S)NCCc2ccc(F)cc2)c1C
 : 5.8	.	-0.9	-3.1	-0.5	-29.0	1.3
- Cc1cc(C)n2nc(C(=O)OCC(=O)N3CCC3)nc2n1
 : 0.7	25.2%	4.1	-8.5	2.2	1.3	7.2
- COc1ccccc1C(=O)C1CCCN(C(=O)C2CCCC2)C1 (configuration not stated)
 : -1.2	-4.9%	-3.2	-16.2	2.9	2.1	-5.7
- COc1ccc(S(=O)(=O)N2CCC(C(=O)NCC3CCCO3)CC2)cc1OC (configuration not stated)
 : 1.9	10.6%	1.9	-5.6	8.3	5.8	-7.2
- O=C(CSc1nnc(Cc2ccccc2)n1-c1cccc(Cl)c1)N1CCOCC1
 : 0.8	12.9%	-3.8	2.0	-0.4	18.9	-9.3
